Screening results: PubChem BioAssay, National Center for Advancing Translational Sciences (NCATS)
Vaccinia Venus: vaccinia inhibition (Venus reporter) | Vaccinia virus Venus reporter expression, fluorescence | 330,000 compounds, 0.46% hits | Potency, µM (highest dose often 36.5 µM), for inactives: top-dose activity change, negative = inhibition, hits mostly inhibitors; active means well fitted inhibition curve with a large enough effect; inconclusive means small, poorly fitted or top-dose-only effect; inactive means no such curve, though single readings can be large or run the other way; tested in A549 cells; note: nearly all actives have a fitted effect of over 30% in size; inactives centre near -10
VACV mCherry inh: vaccinia inhibition (mCherry reporter); Vaccinia virus mCherry reporter infection, fluorescence; about a quarter of the inactives have no number; Potency, µM (titrated, usually from 36.5 µM), inactives show at the highest dose activity change, negative = inhibition, most hits filed as inhibitors; 310,000 compounds, 0.63% hits; AID 720579; active = well fitted inhibition curve with a large enough effect; inconclusive = small, poorly fitted or top-dose-only effect; inactive = no such curve, though single readings can be large or run the other way; tested in A549 cells; note: nearly all actives have a fitted effect of over 35% in size; inactives centre near -10
* = called active by the depositor; i = inactive; ? = inconclusive; . = not tested or not shown; [ ] = dose if it differs, or a comment. % is set by controls: 0 for no effect and ±100 for the full control effect; potency is the fitted concentration of half-maximal effect. Random draw from the library. Share with any hit: about 0.87%.

Fields: Vaccinia Venus | VACV mCherry inh
COCCn1c(SCC(=O)NC2CCCCC2)nnc1-c1ccco1
  -6.5% | i
CC(C)N(C)c1ncnc2c1ncn2[C@H]1CN(CCN2CCOCC2)C[C@@H](CO)O1
  4.8% | 4.4%
Cc1nc2ccccc2n1CCOc1ccccc1
  -9.7% | -1.7%
Cc1ccc2c(CSc3nc4nc(C)cc(C)n4n3)cc(=O)oc2c1
  -7.5% | .
C=CCOC(=O)C1=C[C@@H](C2CCCCC2)C[C@@H](OCc2ccc(CO)cc2)O1
  -16.8% | i
COCCn1c(=N)c(C(=O)NCC2CCCO2)cc2c(=O)n3ccccc3nc21 (stereo not given)
  -2.2% | 11.4%
CCOc1ccccc1N(C)C(=O)c1cn(CC)c(=O)c2cc(OC)c(OC)cc12
  -2.5% | i
COCCCNC(=O)c1cc(S(=O)(=O)N2CCC3(CC2)OCCO3)ccc1F
  0.6% | ?
O=C(/C=C/c1ccccc1)NCc1ccc2c(c1)OCO2
  -0.2% | -1.2%
CN1CCN(C(=O)CCc2nc(-c3ccc(Cl)cc3)no2)CC1
  -9.5% | i
O=C(CN1CCN(Cc2ccccc2Cl)C1=O)NC1CCCCCCC1
  -23.1% | -24.9%
CCOc1ccc(N(CC(=O)NCc2cccs2)S(=O)(=O)c2c(C)noc2C)cc1
  -5.0% | 11.4%
Clc1ccc(Cn2c3c(c4ccccc42)CCc2cc4ccccc4nc2-3)cc1
  -9.3% | -3.0%
NS(=O)(=O)c1cc(C(=O)N=Nc2c(O)[nH]c3ccccc23)ccc1Cl
  -10.6% | -24.4%
CCOC(=O)c1c(NC(=O)c2cc3n(n2)C(C(F)(F)F)CC(c2cccs2)N3)sc(C)c1C (stereo not given)
  -4.8% | -9.0%
NC(=O)C1CCN(C(=O)c2cc3n(n2)C(C(F)(F)F)CC(c2ccco2)N3)CC1 (stereo not given)
  7.6% | i
Cc1nn(CC(=O)c2ccc(Cl)cc2Cl)c(C)[n+]1N
  -7.8% | -22.7%
COc1ccc(-c2c(-c3ccc(S(C)(=O)=O)cc3)sc3ccc(OC)cc23)cc1
  -17.1% | i
COc1ccc(OCC(=O)N/N=C/c2ccc(N(C)C)cc2)cc1
  -10.5% | i
O=C(NCC(=O)N(c1ccc(F)cc1)C(C(=O)NCC1CCCO1)c1ccccc1)c1ccco1 (stereo not given)
  -5.4% | -18.0%
Cn1c(=O)n(/N=C/c2ccccc2)c2ccccc21
  -2.4% | -1.4%
COc1cc(NC(=O)c2cc3cc4cc(OC)ccc4nc3o2)cc(OC)c1
  -12.3% | -19.7%
CNc1c(NS(=O)(=O)c2ccc(Cl)s2)c(=O)oc2ccccc12
  -9.3% | i
CCc1ccccc1NC(=O)CCNS(=O)(=O)c1ccc2c(c1)CCCC(=O)N2
  -1.9% | -8.1%
COc1ccc(CN(CCC(c2ccccc2)c2ccc(OC(C)C)cc2)C(=O)CCl)cc1OC (stereo not given)
  ? | -14.8%
COc1cccc(CNC(=O)CN(c2ccc(C(C)C)cc2)S(=O)(=O)c2c(C)noc2C)c1
  -4.7% | -10.3%
c1ccc2c(CN3CCCCCCC3)c[nH]c2c1
  -29.8% | ?
CCc1ccccc1NC(=O)C1=C(C)C(=O)OC12CCCCCC2
  -11.6% | -13.0%
COc1ccc(N2CCN(Cc3nc4c(c(=O)[nH]c(=O)n4C)n3CC(C)=O)CC2)cc1
  -11.9% | i
Cc1cccc(NS(=O)(=O)c2cc(C(=O)N3CCCCCC3)ccc2C)c1
  -12.3% | -3.2%

Single records (already shown).
`CCOc1ccccc1N(C)C(=O)c1cn(CC)c(=O)c2cc(OC)c(OC)cc12` is listed as Vaccinia Venus: -2.5%; VACV mCherry inh: i
`CC(C)N(C)c1ncnc2c1ncn2[C@H]1CN(CCN2CCOCC2)C[C@@H](CO)O1` is listed as Vaccinia Venus: 4.8%; VACV mCherry inh: 4.4%

(continued)
Fields: Vaccinia Venus | VACV mCherry inh
O=CNc1c(Cl)cc2c(c1Cl)Cc1cc([N+](=O)[O-])ccc1-2
  -12.8% | -22.1%
Cc1ccc(C(Nc2ccccn2)c2ccc3cccnc3c2O)cc1 (stereo not given)
  ? | 11.2µM*
O=C(N/N=C/C1CCCCC1)c1ccccc1-n1cccc1
  -6.1% | -15.8%
Cc1cccc(CNS(=O)(=O)c2csc(C(N)=O)c2)c1
  -3.2% | -11.4%
CCC(C)(C)C1CCC2(CC1)NC(=O)N(CC(=O)N(C)CC(=O)Nc1ccccc1C(F)(F)F)C2=O (stereo not given)
  -11.7% | i
O=C(CCn1c(=O)c2cccn2c2cccnc21)NCc1ccccc1Cl
  -12.4% | -10.5%
CCOc1ccc(NC(=O)CN(C)C(=O)c2cc3c(s2)CCCCC3)cc1OCC
  -27.1% | -3.1%
COc1ccc(CCN2C(=O)N(c3ccc(F)cc3)C(=O)C2CC(=O)Nc2ccccc2)cc1OC (stereo not given)
  4.9% | 2.4%
NC(=O)c1cc(N)ccc1N1CCCC1
  30.5%[activator] | 12.9%
Cc1cc(NC2C3CC4CC(C3)CC2C4)n2ncnc2n1 (stereo not given)
  -20.8% | -22.3%
CC(=O)n1c(C=Nc2ccc(Cl)cc2)c(O)c2ccccc21
  -4.8% | i
CCS(=O)(=O)c1ccc2oc(Nc3ccc(C(C)(C)C)cc3)nc2c1
  -16.3% | -8.3%
COCCCNCCCOc1ccc(C(C)(C)c2ccccc2)cc1
  -14.0% | -0.2%
COc1ccc(SCCN2CCN(CC(C)C)CCC2=O)cc1
  -26.9% | i
Cc1ccccc1OCC(=O)OCC(=O)NCc1ccco1
  -9.9% | -11.0%
CCN1C(=O)c2cccc3c(S(=O)(=O)NC(Cc4c[nH]c5ccccc45)C(=O)O)ccc1c23 (stereo not given)
  -29.6% | .
O=C1CN(C(=O)COC(=O)CCNS(=O)(=O)c2ccc(Cl)cc2)c2ccccc2N1
  -12.3% | -18.8%
CCCCC[C@@H](C)N1C[C@@H](COCc2ccccc2)Oc2cc(N3CC[C@H](O)C3)ccc2S1(=O)=O
  3.0% | 7.4%
COc1cccc(/C=C2\SC(=O)NC2=O)c1OCc1ccc(C(=O)O)cc1
  -15.5% | i
Cn1c(=O)[nH]c(=O)c2c1nc(SCCO)n2Cc1ccccc1Cl
  -7.5% | i
CCN(CC)CCCNc1cc(C)c(C#N)c2nc3ccccc3n12
  -20.2% | -7.2%
O=C(CCc1nnc(CCCc2ccccc2)o1)NCC(F)(F)F
  -9.2% | -0.5%
O=C(CSCc1ccc(F)cc1)Nc1ccc(F)cc1
  -14.1% | i
COc1ccccc1S(=O)(=O)N(C)C[C@@H]1OCc2cn(nn2)CCCC(=O)N([C@H](C)CO)C[C@H]1C
  -12.9% | -11.8%
CCN(C(=O)c1cc2cc3ccc(C)cc3nc2o1)c1ccc(OC)cc1
  -14.2% | -28.9%
CC(=O)N1CCc2cc(S(=O)(=O)NC(Cc3ccccc3)C(=O)NCc3ccccc3)ccc21 (stereo not given)
  -8.6% | -13.0%
Cc1cccc(NC(=O)CC(C)(C)C)c1
  -15.7% | -4.6%
CCC(C(=O)NC1CCCC1)N(C(=O)Cn1nnc(-c2ccc(C)o2)n1)c1ccc(OC)cc1 (stereo not given)
  0.5% | -6.1%
CCOC(=O)N1CCN(CC(=O)Nc2ccc(C)c(Br)c2)CC1
  -0.3% | -13.4%
CC(C)CN(CC(C)C)C(=O)C1CCCN(S(=O)(=O)c2ccc3c(c2)oc(=O)n3C)C1 (stereo not given)
  -2.2% | -5.0%

Among those listed so far, 5 contain an NH in an aromatic ring:
Fields: Vaccinia Venus | VACV mCherry inh
NS(=O)(=O)c1cc(C(=O)N=Nc2c(O)[nH]c3ccccc23)ccc1Cl
  -10.6% | -24.4%
c1ccc2c(CN3CCCCCCC3)c[nH]c2c1
  -29.8% | ?
COc1ccc(N2CCN(Cc3nc4c(c(=O)[nH]c(=O)n4C)n3CC(C)=O)CC2)cc1
  -11.9% | i
CCN1C(=O)c2cccc3c(S(=O)(=O)NC(Cc4c[nH]c5ccccc45)C(=O)O)ccc1c23 (stereo not given)
  -29.6% | .
Cn1c(=O)[nH]c(=O)c2c1nc(SCCO)n2Cc1ccccc1Cl
  -7.5% | i

Next entries follow.
Fields: Vaccinia Venus | VACV mCherry inh
CCOC(=O)Cc1c(C(=O)OCC)nnc2c(-c3ccccc3)c(C)nn12
  -9.2% | -3.2%
CS(=O)(=O)N(CC(=O)Nc1ccccc1Br)Cc1ccccc1
  -7.5% | i
CCOC(=O)[C@]12CCCC=C1N(Cc1ccc3c(c1)OCO3)C(=O)[C@H](CC(=O)N1CCCCC1)C2
  -6.8% | -9.5%
COc1ccc(CNC(=O)c2cccc(N3CCCS3(=O)=O)c2)cc1OC
  -26.6%[7.34 µM] | -22.0%[7.34 µM]
COC(=O)c1cc(NC(=O)C2(S(=O)(=O)c3ccc(C)cc3)CC2)cc(C(=O)OC)c1
  -10.0% | -5.4%
CCCCOc1ccc(Cc2c(COCC)[nH]c(=S)[nH]c2=O)cc1
  -6.1% | -0.4%
N#Cc1ccsc1NC(=O)CCN1C(=O)C2CCCCC2C1=O (stereo not given)
  0.5% | i
CCCCNC(=O)CN1CCC2(O)CCCCC2C1c1ccccc1OC (stereo not given)
  -4.5% | -20.0%[1.46 µM]
COC(=O)c1ccc(CSc2ncnc3ccccc23)o1
  -12.9% | -3.1%
Cn1c(=O)[nH]c(=O)c2c1nc(N1CCNCC1)n2Cc1cccc2ccccc12
  -18.5% | -4.7%
CSc1ccc(C2C(C#N)=C(N)N(c3ccccc3)C3=C2C(=O)CCC3)cc1 (stereo not given)
  -12.0% | .
CCCCN1CC(COC)Oc2cccc(F)c2S1(=O)=O (stereo not given)
  -3.0% | i
Cc1cc(CNC(=O)COc2ccc(F)cc2Cl)cc(C)c1O
  -8.6% | -24.3%
COC(=O)CSc1snnc1-c1ccc(Cl)cc1Cl
  -7.9% | .
COc1ccccc1NC(=O)c1nn(-c2ccccc2)ccc1=O
  -18.7% | .
COC(=O)c1sc2ccccc2c1N
  -8.5% | i
CCCc1cc(=O)[nH]c(SCC(=O)N2CCN(S(=O)(=O)c3ccc(C)cc3)C2)n1
  -11.1% | i
Cc1cc(=O)nc2c3ccccc3n(C(C)C(=O)NCCN3CCOCC3)n12 (stereo not given)
  1.7% | 5.0%
COc1ccc(S(=O)(=O)N2CC(=O)Nc3ccccc32)cc1F
  -5.0% | -16.9%
CCc1ccc2c(CN(C)Cc3ccc(OC(F)F)c(OC)c3)cc(=O)oc2c1
  -3.3% | -16.6%
CN1C(=O)C2(CCCCC2)C1c1ccccc1 (stereo not given)
  -4.4% | -12.8%
O=C(NCC1CCN(c2ccc(S(=O)(=O)N3CCOCC3)cc2)CC1)Nc1ccccc1F
  -5.4% | -3.7%
O=C(NC(=S)N1CCCCCC1)C1CC1
  -8.1% | -10.6%
CCN(c1ccccc1)S(=O)(=O)c1ccc2c(c1)N(C(C)=O)CCO2
  -6.1% | i
CCOc1ccc(/C=C2\SC(=S)N(CC(=O)Nc3ccccn3)C2=O)cc1
  -3.3% | -25.0%
CC1CCC(NC(=O)c2cccc(S(=O)(=O)N3CCN(C)CC3)c2)CC1 (stereo not given)
  -10.4% | -1.3%
COc1ccc(C2=C/C(=C/c3cccnc3)C(=O)O2)cc1OC
  -7.1% | i
CC(=O)NC(c1ccccc1)c1nc2ccccc2[nH]1 (stereo not given)
  -11.3% | -12.8%
O=C(NCC(c1cccnc1)N1CCOCC1)C(=O)Nc1ccc(Cl)cc1 (stereo not given)
  -10.5% | -0.7%
O=C(NCc1ccccc1)[C@@H]1CCCN1C(=O)[C@@H]1CCCN1C(=O)c1cccc2ccccc12
  -1.1% | -2.7%
[N-]=C=C1C(=S)NC(=O)[C@H]([n+]2ccccc2)[C@H]1c1ccc(Cl)cc1
  -8.8% | i
NS(=O)(=O)c1ccc(CCNC(=O)c2nc(SCc3ccccc3F)ncc2Cl)cc1
  -11.9% | -13.6%
Cc1cccc(C(=O)OCc2cc3ccccc3[nH]c2=O)c1
  -11.5% | -21.5%
COc1ccccc1C(CNC(=O)C(CCSC)NS(=O)(=O)c1ccccc1F)N1CCCC1 (stereo not given)
  -13.6% | -0.9%
CCOC(=O)c1sc2nc3c(SCC(=O)O)cc(C(=O)c4ccccc4O)cn3c(=O)c2c1C
  20.7% | i
CN1C(C(=O)Nc2ncccn2)=C(O)c2ccccc2S1(=O)=O
  -16.3% | i
Cc1cc(F)ccc1NC(=O)c1ccc(NS(=O)(=O)c2cccs2)cc1
  -11.8% | i
CCCCCCc1cc2cc(-c3nnc(-c4ccccc4)o3)c(=O)oc2cc1O
  -5.8% | -14.7%
O=C(Cn1nc(C(=O)O)c2ccccc2c1=O)Nc1ccc(Cl)c(S(=O)(=O)N2CCOCC2)c1
  -17.8% | i
CN(CCO)C(=O)c1c(NC(=O)c2ccccc2)sc2c1CCCC2
  -7.7% | -13.7%
Cc1cc(O)c(C(c2ccccc2)N2CCN(c3ccccc3F)CC2)c(=O)n1Cc1ccco1 (stereo not given)
  -12.3% | -10.6%
Cc1cc(NC(=O)COC(=O)c2c(C)nn(Cc3ccccc3)c2Cl)no1
  -9.6% | -12.9%
Cc1ccc(NC(=O)COc2cccc(/C=C3\SC(=S)N(CCC(=O)O)C3=O)c2)cc1Cl
  -11.5% | -12.0%
COc1ccc(NC(=S)N(CCc2c(C)[nH]c3ccccc23)Cc2cccnc2)cc1
  -21.6% | -25.4%
